Assay outcomes from PubChem BioAssay.
KCNQ2 pot: KCNQ2 (rat) channel potentiation; CHO-K1 KCNQ2, FluxOR thallium flux fluorescence; hits give high values; AID 2239; B-score at 10 µM; 0.54% of 310,000 active;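 active = fluorescence ratio B-score at least 3 SD of library B-scores, with initial fluorescence B-score within 3 SD, cut at about 5.3 in these data; same plate scores as AID 2156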;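 also: B-score of peak minus minimum over baseline fluorescence ratio after K+ and Tl+ stimulus; positive B-score means potentiation of KCNQ2 with more thallium influx and brighter signal; only the inactives scoring about 0 or higher are listed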
Target sequence (O88943 whole entry, looked up): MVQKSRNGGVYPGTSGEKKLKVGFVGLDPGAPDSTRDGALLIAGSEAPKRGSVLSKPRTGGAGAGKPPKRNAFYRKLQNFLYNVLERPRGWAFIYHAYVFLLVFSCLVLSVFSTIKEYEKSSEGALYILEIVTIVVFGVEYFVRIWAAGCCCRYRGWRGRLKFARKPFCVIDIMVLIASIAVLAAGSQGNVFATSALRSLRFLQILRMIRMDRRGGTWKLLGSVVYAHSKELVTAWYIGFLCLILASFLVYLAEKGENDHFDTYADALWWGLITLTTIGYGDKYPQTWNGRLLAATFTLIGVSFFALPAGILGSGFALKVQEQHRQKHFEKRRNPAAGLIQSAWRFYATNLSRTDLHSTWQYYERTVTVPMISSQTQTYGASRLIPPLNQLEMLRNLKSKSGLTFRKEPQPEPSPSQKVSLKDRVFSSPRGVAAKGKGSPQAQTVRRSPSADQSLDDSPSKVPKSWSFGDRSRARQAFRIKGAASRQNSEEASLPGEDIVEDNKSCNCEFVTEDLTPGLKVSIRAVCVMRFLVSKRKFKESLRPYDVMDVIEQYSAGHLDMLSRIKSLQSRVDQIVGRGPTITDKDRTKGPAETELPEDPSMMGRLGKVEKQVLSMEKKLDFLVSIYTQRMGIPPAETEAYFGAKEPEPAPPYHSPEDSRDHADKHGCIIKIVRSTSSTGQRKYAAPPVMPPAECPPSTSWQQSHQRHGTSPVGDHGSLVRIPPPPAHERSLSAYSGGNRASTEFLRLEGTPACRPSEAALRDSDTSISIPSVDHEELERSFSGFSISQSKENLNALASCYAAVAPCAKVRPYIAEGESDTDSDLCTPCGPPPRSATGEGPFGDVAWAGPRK
KCNQ2 pot baseline: second read-out of KCNQ2 pot, no call of its own (marks repeat the call); B-score; compound at 10 µM; measured here: initial fluorescence intensity artifact check;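 brightness before thallium and not channel activity; 0 = typical well and far values either way flag optical interference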
An asterisk follows results filed as active.

`O=C(CN1C(=O)NC2(CCCCC2)C1=O)N1CCN(S(=O)(=O)c2ccc(F)cc2)CC1` gave KCNQ2 pot 1.31 and KCNQ2 pot baseline -0.42.
Screening CCOc1ccc(-c2nonc2NC(=O)c2ccco2)cc1 returned KCNQ2 pot 0.72 and KCNQ2 pot baseline 1.
For O=C(CC1(O)C(=O)N(Cc2ccc3c(c2)OCO3)c2ccccc21)c1ccccc1 (stereo not given) the results were KCNQ2 pot 0.79 and KCNQ2 pot baseline 0.53.
`Cc1ccc(NC(=O)Cn2ncc3ccccc32)c(Cl)c1` gave KCNQ2 pot 0.16 and KCNQ2 pot baseline -0.18.
Screening CCn1c2ccccc2c2cc([N+](=O)[O-])ccc21 returned KCNQ2 pot 0.08 and KCNQ2 pot baseline -0.75.
CCN1C(=O)/C(=C\c2ccncc2)SC1=S was read as KCNQ2 pot 0.02 and KCNQ2 pot baseline -0.06.
`CCOCCCNS(=O)(=O)c1ccc2c(c1)OCCO2` gave KCNQ2 pot 0.07 and KCNQ2 pot baseline -0.99.
Cc1ccc(NC2CC(=O)N(c3ccc(C)cc3)C2=O)cc1 (stereo not given) was read as KCNQ2 pot 0.29 and KCNQ2 pot baseline 0.26.
For O=C1CN(S(=O)(=O)c2ccc(F)cc2)CC(=O)N1CCc1ccccc1 the results were KCNQ2 pot 0.38 and KCNQ2 pot baseline 0.
For Cc1cccn2c(=O)nc(SCC(=O)N3CCCCC3)nc12 the results were KCNQ2 pot 0.27 and KCNQ2 pot baseline -0.86.
C/C(CC(=O)Nc1ccc2c(c1)OCCO2)=N\NC(=O)COc1ccc(Cl)c(C)c1 was read as KCNQ2 pot 0.05 and KCNQ2 pot baseline 0.91.
Screening C=CCC(NCCCO)c1cccc(OC)c1OC (stereo not given) returned KCNQ2 pot 1.12 and KCNQ2 pot baseline 0.96.
For O=C(O)CCC(=O)c1ccc2c(c1)CCCC2 the results were KCNQ2 pot 0.33 and KCNQ2 pot baseline -0.39.
`NC(=S)N/N=C1/CCSc2ccc3ccccc3c21` gave KCNQ2 pot 0.92 and KCNQ2 pot baseline -0.03.
For O=C(Nc1ccc2nn(-c3ccccc3)nc2c1)c1ccco1 the results were KCNQ2 pot 0.04 and KCNQ2 pot baseline -1.1.
Screening Cc1cc(C)n(CC(O)Cn2c3ccc(Cl)cc3c3cc(Cl)ccc32)c(=O)n1 (stereo not given) returned KCNQ2 pot 0.03 and KCNQ2 pot baseline -0.37.
`CCn1ncc(Cl)c1C(=O)Nc1cc([N+](=O)[O-])ccc1OC` gave KCNQ2 pot 1.4 and KCNQ2 pot baseline 0.32.
For CC(C)C(=O)O/N=C(\N)c1ccccn1 the results were KCNQ2 pot 0.64 and KCNQ2 pot baseline -0.04.
`CCc1ccccc1NC(=O)C1CCCN(c2nccc(C)n2)C1` (stereo not given) gave KCNQ2 pot 0.33 and KCNQ2 pot baseline 1.9.
`O=S(=O)(c1ccccc1)N1CCC(=NO)CC1` gave KCNQ2 pot 1.4 and KCNQ2 pot baseline -0.52.
`CCOc1ccc(OCc2cccc(C(=O)O)c2)cc1` gave KCNQ2 pot 1.6 and KCNQ2 pot baseline 0.52.
Screening O=c1c(-c2ccccc2)c(O)c2cccc3c2n1CCC3 returned KCNQ2 pot 0.29 and KCNQ2 pot baseline -0.03.
For O=C(NCCN1CCCCC1)c1ccc(Oc2cc(Cl)cc(Cl)c2)o1 the results were KCNQ2 pot 0.08 and KCNQ2 pot baseline 0.58.
For CN(CC(=O)NCc1ccccn1)S(=O)(=O)c1ccc(F)cc1 the results were KCNQ2 pot 0.8 and KCNQ2 pot baseline 1.05.
Screening O=C(N[C@@H](c1ccccc1)[C@@H]1C[C@H]1C(=O)O)OCc1ccccc1 returned KCNQ2 pot 0.4 and KCNQ2 pot baseline -0.41.
Screening COP1(=O)C[C@@H](O)[C@@H](O)[C@@H](COCc2ccccc2)O1 (stereo not given in full) returned KCNQ2 pot 0.28 and KCNQ2 pot baseline -0.46.
`COc1ccc(CC(=O)N/N=C(\C)c2cccnc2)cc1OC` gave KCNQ2 pot 1 and KCNQ2 pot baseline 1.23.
Screening O=C(N/C(=C/c1ccc(F)cc1)C(=O)N1CCOCC1)c1ccccc1 returned KCNQ2 pot 0.67 and KCNQ2 pot baseline 2.24.
Screening CCC(=O)Nc1nc2c(s1)COc1ccccc1-2 returned KCNQ2 pot 0.17 and KCNQ2 pot baseline 0.85.
Screening COc1ccc(NC(=O)CN(C)S(=O)(=O)c2ccc3c(c2)CCCN3C(C)=O)cc1 returned KCNQ2 pot 1.18 and KCNQ2 pot baseline -1.07.
`O=C(O)c1ccccc1SCc1ccc2c(c1)OCO2` gave KCNQ2 pot 2.36 and KCNQ2 pot baseline -1.67.
CC(=O)N1C(=O)NC(c2ccccc2)=C([N+](=O)[O-])C1c1ccccc1 (stereo not given) was read as KCNQ2 pot 0.44 and KCNQ2 pot baseline -1.4.
`O=C(Oc1ccc(C(=S)N2CCOCC2)cc1)c1cccc(Cl)c1` gave KCNQ2 pot 1.4 and KCNQ2 pot baseline -1.12.
For CC(=O)N1c2ccc(S(=O)(=O)NCC3CCC(C(=O)NC4CCCCC4)CC3)cc2CC1C (stereo not given) the results were KCNQ2 pot 0.46 and KCNQ2 pot baseline -0.03.
Screening COCCNC(=O)C1Cc2cc(S(=O)(=O)N3CCCC3)ccc2N1C(C)=O (stereo not given) returned KCNQ2 pot 0.93 and KCNQ2 pot baseline 0.52.
`c1ccc(Nc2ccc(-n3ccnc3)nn2)cc1` gave KCNQ2 pot 0.53 and KCNQ2 pot baseline 0.19.
Screening CCCn1nnnc1SCC(=O)c1ccc(NC(C)=O)cc1 returned KCNQ2 pot 0.26 and KCNQ2 pot baseline 0.95.
`CCOC(=O)Cc1csc(NC(=O)Nc2ccc(OC(F)(F)F)cc2)n1` gave KCNQ2 pot 1.54 and KCNQ2 pot baseline -0.74.
Cc1ccc(NC2=CC(=O)C(=O)c3ccccc32)cc1 was read as KCNQ2 pot 0.39 and KCNQ2 pot baseline -2.41.
CCOC(=O)C1C(=O)N(C(=O)c2cncc(Br)c2)CC1c1ccccc1 (stereo not given) was read as KCNQ2 pot 0.18 and KCNQ2 pot baseline 0.66.

In the list so far, these have four or more nitrogen atoms:
`O=C(CN1C(=O)NC2(CCCCC2)C1=O)N1CCN(S(=O)(=O)c2ccc(F)cc2)CC1` gave KCNQ2 pot 1.31 and KCNQ2 pot baseline -0.42.
For Cc1cccn2c(=O)nc(SCC(=O)N3CCCCC3)nc12 the results were KCNQ2 pot 0.27 and KCNQ2 pot baseline -0.86.
For O=C(Nc1ccc2nn(-c3ccccc3)nc2c1)c1ccco1 the results were KCNQ2 pot 0.04 and KCNQ2 pot baseline -1.1.
`CCn1ncc(Cl)c1C(=O)Nc1cc([N+](=O)[O-])ccc1OC` gave KCNQ2 pot 1.4 and KCNQ2 pot baseline 0.32.
`CCc1ccccc1NC(=O)C1CCCN(c2nccc(C)n2)C1` (stereo not given) gave KCNQ2 pot 0.33 and KCNQ2 pot baseline 1.9.
`c1ccc(Nc2ccc(-n3ccnc3)nn2)cc1` gave KCNQ2 pot 0.53 and KCNQ2 pot baseline 0.19.
Screening CCCn1nnnc1SCC(=O)c1ccc(NC(C)=O)cc1 returned KCNQ2 pot 0.26 and KCNQ2 pot baseline 0.95.

The listing continues:
For O=C(NCCS(=O)(=O)N1CCN(c2ccc(F)cc2)CC1)C1CC(=O)N(c2ccccc2)C1 (stereo not given) the results were KCNQ2 pot 0.13 and KCNQ2 pot baseline -0.53.
Cc1cc(C(=O)Nc2ccccc2C#N)n(-c2ccccc2)n1 was read as KCNQ2 pot 0.52 and KCNQ2 pot baseline 0.28.
Nc1ccc(Oc2ccc(Br)cc2)cc1 was read as KCNQ2 pot 1.46 and KCNQ2 pot baseline 0.01.
For CCNc1nc(N)c(C(=O)c2ccc(Cl)s2)s1 the results were KCNQ2 pot 0.18 and KCNQ2 pot baseline 0.64.
CCOC(=O)c1c(NC(=O)COC(=O)c2ncc(Cl)c(Cl)c2Cl)sc(C(=O)N(C)C)c1C was read as KCNQ2 pot 1.63 and KCNQ2 pot baseline -0.6.
For CCNC(=S)NNc1nc(N2CCOCC2)nc(N2CCOCC2)n1 the results were KCNQ2 pot 1.36 and KCNQ2 pot baseline -1.82.
Screening COc1ccc(C(=O)NCc2nnc(SCC(=O)N3CCC(C)CC3)o2)cc1OC returned KCNQ2 pot 0.59 and KCNQ2 pot baseline 2.02.
Screening Cc1ccc(C(=O)Nc2ccc(SC(F)F)cc2)s1 returned KCNQ2 pot 0.27 and KCNQ2 pot baseline 1.66.
For S=C(c1ccc2c(c1)OCO2)N1CCCCC1 the results were KCNQ2 pot 0.25 and KCNQ2 pot baseline -0.05.
Screening COc1ccc(CCNc2ccc([N+](=O)[O-])cn2)cc1 returned KCNQ2 pot 0.93 and KCNQ2 pot baseline -2.85.
CCN1CCCC1CNC(=O)c1cn(CC)c2ccc(S(=O)(=O)N3CCCCCC3)cc2c1=O (stereo not given) was read as KCNQ2 pot 0.57 and KCNQ2 pot baseline 0.68.
c1ccc(Sc2ncccn2)nc1 was read as KCNQ2 pot 0.46 and KCNQ2 pot baseline -0.35.
`Cn1c(=O)n(C)c2cc(/C=N/NC(=O)c3ccc(Cl)cc3)ccc21` gave KCNQ2 pot 0.45 and KCNQ2 pot baseline 0.76.
O=C(N/N=C/c1cccs1)c1cccc(NC(=O)c2ccccc2Cl)c1 was read as KCNQ2 pot 1.74 and KCNQ2 pot baseline -0.1.
Screening C/C(=N\NC(=O)c1ccccc1Br)c1ccc(N2CCOCC2)cc1 returned KCNQ2 pot 2.65 and KCNQ2 pot baseline -1.11.
For S=C(Nc1ccccc1)N1CCCN1c1ccccc1 the results were KCNQ2 pot 0.58 and KCNQ2 pot baseline -0.08.
`COc1ccc2oc(C(=O)OCC(=O)N(CC(C)C)c3c(N)n(Cc4ccccc4)c(=O)[nH]c3=O)c(C)c2c1` gave KCNQ2 pot 1.4 and KCNQ2 pot baseline -1.46.
O=C(Nc1ccc(Cl)cc1)Nc1nnc(CSCc2ccc(Cl)cc2)s1 was read as KCNQ2 pot 1.4 and KCNQ2 pot baseline -1.07.
Cc1nc(NCCN2CCOCC2)c2oc3ccccc3c2n1 was read as KCNQ2 pot 0.67 and KCNQ2 pot baseline 0.68.
O=C(CSc1nnc(-c2cccnc2)s1)Nc1ccnc2ccccc12 was read as KCNQ2 pot 0.07 and KCNQ2 pot baseline -0.72.

An excerpt from above in order of length of the SMILES, high to low.
Screening COc1ccc(NC(=O)CN(C)S(=O)(=O)c2ccc3c(c2)CCCN3C(C)=O)cc1 returned KCNQ2 pot 1.18 and KCNQ2 pot baseline -1.07.
Screening COP1(=O)C[C@@H](O)[C@@H](O)[C@@H](COCc2ccccc2)O1 (stereo not given in full) returned KCNQ2 pot 0.28 and KCNQ2 pot baseline -0.46.
For O=C(Nc1ccc2nn(-c3ccccc3)nc2c1)c1ccco1 the results were KCNQ2 pot 0.04 and KCNQ2 pot baseline -1.1.

Further records.
`Cc1cccc(OCCc2nnc(N)s2)c1C` gave KCNQ2 pot 0.07 and KCNQ2 pot baseline -0.22.
O=C1c2cccc3cccc(c23)C(=O)N1OS(=O)(=O)c1ccc(Cl)cc1 was read as KCNQ2 pot 0.99 and KCNQ2 pot baseline 1.59.
`NS(=O)(=O)c1cc2c(cc1Cl)NC(C(Cl)Cl)NS2(=O)=O` (stereo not given) gave KCNQ2 pot 0.28 and KCNQ2 pot baseline -0.7.
Screening CC(C)CN(C(=O)CSc1nnc2c(Cl)cc(C(F)(F)F)cn12)C1CCS(=O)(=O)C1 (stereo not given) returned KCNQ2 pot 0.67 and KCNQ2 pot baseline -0.32.
Screening COc1cc2cc(C(=O)N3CCC(Cc4ccccc4)CC3)[nH]c2cc1OC returned KCNQ2 pot 1.39 and KCNQ2 pot baseline 0.85.
Cc1ccc(C(=O)N2CCN(c3ccccc3O)CC2)cc1S(=O)(=O)N1CCCCC1 was read as KCNQ2 pot 1.7 and KCNQ2 pot baseline 0.08.
Screening COc1ccc(N2CCN(C(=O)c3ccc(CS(=O)(=O)c4ccc(Br)cc4)o3)CC2)cc1 returned KCNQ2 pot 0.37 and KCNQ2 pot baseline -0.06.
For Cn1c(=O)cc(OCCCC(=O)N2CCN(c3ccccn3)CC2)c2ccccc21 the results were KCNQ2 pot 0.73 and KCNQ2 pot baseline -0.87.
`Cc1cc([N+](=O)[O-])ccc1-c1ccc(C2Nc3ccccc3C(=O)N2O)o1` (stereo not given) gave KCNQ2 pot 1.45 and KCNQ2 pot baseline 1.79.
For COc1ccccc1C(=O)N/C(=C/c1ccccc1)C(=O)Nc1ccc(C(=O)O)cc1 the results were KCNQ2 pot 0.82 and KCNQ2 pot baseline -0.79.
N#Cc1c(-c2ccc(F)cc2)nc2n(c1=O)CCS2 was read as KCNQ2 pot 1.08 and KCNQ2 pot baseline 0.68.
For Cc1nn(C(C)C(=O)NCCc2ccco2)c(=O)c2nn(-c3ccccc3)c(C)c12 (stereo not given) the results were KCNQ2 pot 1.6 and KCNQ2 pot baseline 0.3.
For O=C(CN1C(=O)NC2(CCCC2)C1=O)Nc1cccc(Cl)c1Cl the results were KCNQ2 pot 2.1 and KCNQ2 pot baseline 0.
Screening COc1ccnc(N2CCN(c3ccc(Cl)cc3)CC2)c1C#N returned KCNQ2 pot 0.22 and KCNQ2 pot baseline 0.45.
Screening COc1ccc(N(CC(=O)NCCc2ccc(OC)c(OC)c2)S(=O)(=O)c2c(C)noc2C)cc1 returned KCNQ2 pot 0.17 and KCNQ2 pot baseline 0.15.
`O=C(c1ccc(S(=O)(=O)N2CCCC2)cc1)N1CCN(c2ccccc2)CC1` gave KCNQ2 pot 0.18 and KCNQ2 pot baseline 0.72.
Screening O=C(C(Cc1ccccc1)N1C(=O)C2C3CCC(C3)C2C1=O)N1CCCCC1 (stereo not given) returned KCNQ2 pot 0.95 and KCNQ2 pot baseline 0.41.
C=CCNC(=O)C(=O)NCCCN1CCOCC1 was read as KCNQ2 pot 0.6 and KCNQ2 pot baseline 0.09.
CCCc1[nH]c(=O)c(C#N)c2c1COC(C)(C)C2 was read as KCNQ2 pot 1.95 and KCNQ2 pot baseline 0.28.

Not all compounds are listed; count on the stated rates, not on these rows.
